# Source: PubChem BioAssay (National Center for Advancing Translational Sciences (NCATS))
# D2 potentiator = human D2 receptor positive allosteric modulation; P14416; DiscoveRx D2 beta-arrestin cells, luminescence, 90 min; 100% = 57 uM dopamine signal; potentiation, % (concentration not given with the values); 360,000 tested, 0.23% active; AID 624464; active = potentiation of 50% or more; inconclusive = 30% to 50%; inactive = 30% or less;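 also: compound concentration not given in the record; tested on top of an EC20 dose of dopamine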
# Target sequence (P14416 whole entry, looked up): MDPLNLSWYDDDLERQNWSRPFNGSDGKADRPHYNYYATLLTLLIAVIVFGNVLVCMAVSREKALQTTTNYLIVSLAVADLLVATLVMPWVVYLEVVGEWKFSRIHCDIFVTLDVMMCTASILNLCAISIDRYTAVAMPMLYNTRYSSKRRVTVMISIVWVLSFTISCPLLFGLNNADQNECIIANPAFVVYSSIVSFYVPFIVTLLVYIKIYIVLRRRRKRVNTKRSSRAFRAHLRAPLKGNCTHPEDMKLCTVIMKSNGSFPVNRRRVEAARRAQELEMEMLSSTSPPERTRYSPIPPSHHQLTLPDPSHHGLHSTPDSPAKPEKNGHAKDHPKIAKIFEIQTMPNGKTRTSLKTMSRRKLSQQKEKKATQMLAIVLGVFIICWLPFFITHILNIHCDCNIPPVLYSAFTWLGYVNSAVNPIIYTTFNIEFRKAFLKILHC
#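 PathHunter D2 cells, attached overnight at 37 deg C, received compound in DMSO plus dopamine at EC20 (50 nM final) for 90 min at 37 deg C. Beta-arrestin recruitment was read as luminescence after 1 h with detection reagent at ambient temperature.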
# Menin MLL FP FL = inhibitors of human menin-MLL interaction, wild-type MLL peptide | Fluorescence polarization, fluorescein-MLL peptide displacement from menin | FP activity change, % at 61.4 µM | 290,000 tested, under 10 active | AID 1766; inconclusive = falling polarisation curve, or a change in total fluorescence; inactive = total fluorescence flat and polarisation flat or rising; no compound was filed as active; the % refers to the polarisation; negative = inhibition;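 also: % of control where 0% means no effect; inhibitors lower the polarisation; unlabelled MLL peptide was the positive control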
# gsp antag = gsp mutant antagonism; gsp-mutant cells, cAMP HTRF, 30 min; control for the full effect not named in the record; Potency, µM (doses to about 76.9 µM), without a hit: at the highest dose activity change, negative = inhibition, most hits filed as inhibitors; 340,000 tested, 0.4% active; AID 624288; active = falling curve of any shape with a large fitted effect; inconclusive = falling curve, mostly with a smaller effect; inactive = flat or rising curve; cell line not stated here;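 also: intracellular cAMP measured with PDE inhibitor Ro 20-1724 present during compound exposure; potency is read from the fitted curve at half-maximal effect; % is scaled to controls: 0 for no effect and ±100 for the full control effect; nearly all actives have a fitted effect of over 65% in size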
#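 Cells in G418 medium, seeded 16-24 h, 37C; buffer exchange to DPBS + 1 mM CaCl2, 0.5 mM MgCl2, 0.05% BSA; cpds in DMSO + […] (300 uM stock), 30 min 37C; HTRF cAMP detection.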
# Sfp PPTase inh = inhibitors of Bacillus subtilis Sfp phosphopantetheinyl transferase; 310,000 tested, 3.5% active; Potency, µM, without a hit: max response, negative = inhibition, actives largely listed as inhibitors; Q9F4F7; Biochemical Sfp PPTase activity, qHTS; AID 1490; active = well fitted inhibition curve with a large enough effect; inconclusive = small, poorly fitted or top-dose-only effect, or another doubt; inactive = no such curve, though single readings can be large or run the other way;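 also: the enzyme is Sfp with the accession as filed and its product quenches rhodamine fluorescence; potency is read from the fitted curve at half-maximal effect; 0% = enzyme reaction without inhibitor and -100% = no enzyme wells; top concentration of the series not given in the record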
#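 After 15 min at room temperature with compound, 15 nM Sfp received 5 uM rhodamine-CoA plus 12.5 uM BHQ-2-ybbR (50 mM Hepes pH 7.6, 10 mM MgCl2). Rate came from the fluorescence difference over 30 min, ex 525/em 598 nm.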
# TRPV1 PAM = potentiators of human vanilloid receptor 1 (TRPV1); Q8NER1; 320,000 tested, 0.02% active; TRPV1-expressing cells, Fluo-8 calcium influx, capsaicin EC20 potentiation; host cell line not named in the record; control for the full effect not named in the record; potentiation, % at 8.33 µM; active means potentiation above 80%; inconclusive means 30% to 80%; inactive means below 30%; also: 0% is about no effect
#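 TRPV1-expressing cells were cultured overnight at 35.5C and loaded with Fluo-8 calcium dye for 40 to 90 min at room temperature. After a 10 s baseline, compound was added and calcium influx was read kinetically for 3 min (ex 480/em 520 nm).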
# ClpP mod = qHTS Assay for Activators of ClpP. ATP-dependent Clp protease proteolytic subunit (Bacillus subtilis (strain 168)), P80244. purified B. subtilis ClpP, FRET peptide cleavage, 20 min. Potency, µM (titrated, usually from 57.5 µM), for inactives: at the highest dose activity change, negative = active. 340,000 tested, 1.9% active; active = well fitted falling curve with a large enough effect; inconclusive = small, poorly fitted or top-dose-only effect; inactive = no such curve, though single readings can be large or run the other way; also: potency is read from the fitted curve at half-maximal effect; the source files actives as falling curves though it sought activators and does not explain the sign; nearly all actives have a fitted effect of over 65% in size; many hits overshoot -100%
# Target sequence (P80244 whole entry, looked up): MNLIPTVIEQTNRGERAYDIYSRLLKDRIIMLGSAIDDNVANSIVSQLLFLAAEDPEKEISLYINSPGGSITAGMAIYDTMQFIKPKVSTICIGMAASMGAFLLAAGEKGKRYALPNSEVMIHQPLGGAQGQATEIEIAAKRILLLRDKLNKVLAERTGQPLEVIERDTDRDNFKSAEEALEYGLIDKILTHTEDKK
#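 Purified B. subtilis ClpP, 10 microg/mL final in Tris/HCl pH8 with KCl, BSA, glycerol and Tween-20, cleaved an Abz/nitrotyrosine-quenched decapeptide. Fluorescence (ex 320, em 430) was read at 0 and 20 min at room temperature. Delta was normalized to 5.8 microM ADEP and DMSO/no-enzyme controls.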
# gsp agonist = agonists of gsp mutant (McCune-Albright syndrome). AID 624287. 340,000 tested, 0.13% active. gsp mutant cells, cAMP HTRF, 30 min; control for the full effect not named in the record. Potency, µM (titrated, usually from 76.9 µM), without a hit: at the top dose activation (cAMP increase), hits mostly activators; active = well fitted activation curve with a large enough effect; inconclusive = small, poorly fitted or top-dose-only effect, or another doubt; inactive = no such curve, though single readings can be large or run the other way; cell line not stated here;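 also: phosphodiesterase inhibitor Ro 20-1724 added with compounds to block cAMP breakdown; potency is read from the fitted curve at half-maximal effect; nearly all actives have a fitted effect of over 60% in size; about a fifth of the inactives were tested at one dose only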
#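 Cells in DMEM/10% FBS with G418 were pretreated with compounds in DMSO plus […] (300 uM stock) for 30 min at 37C. cAMP was measured by HTRF (cAMP-d2 plus anti-cAMP antibody-K) after 30 min at room temperature.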
# Numbers without * were called inactive; ? = inconclusive; . = not tested or not shown; & = joins results of further samples; [ ] = dose if it differs, or a comment. Rows were taken by chance, and some 5.1% of all compounds hit somewhere here.
SMILES,D2 potentiator,Menin MLL FP FL,gsp antag,Sfp PPTase inh,TRPV1 PAM,ClpP mod,gsp agonist
Cc1ccc(-c2nc3ncccc3n2O)cc1,7,-8.3,-1%,7%,11,-6.0%,?
CC(C)N1CCN(Cc2cnc(N3CCCC3)s2)CC1CCO (stereo not given),-7,-6.4,16%,10%,-9,.,2%[15.4 µM]
O=C1CC(NS(=O)(=O)c2cccs2)CN1c1ccc(F)cc1 (stereo not given),1,.,10%,.,5,.,7%[15.4 µM]
Cc1ccccc1C(=O)c1cccn1CC(=O)NCc1ccc2c(c1)OCO2,-2,1.4,-12%,11%,11,-0.2%,-14%
Cc1ccc(C(=O)NCC(=O)OCc2c(F)cccc2Cl)s1,1,.,-1%,.,.,-12%,20%[15.4 µM]
CCOC(=O)C1(CCSC)NC(c2ccco2)C2C(=O)N(C)C(=O)C21 (stereo not given),-5,1.9,7%,8%,0,-0.5%,6%
CC(C)CN(CC(C)C)C(=O)Nc1ccccc1F,-9,2.8,8%,17%,-4,.,-7%
O=C(COc1ccccc1)NCc1cccs1,19,-2.3,11%,0%,9,-13%,-26%
O=C(CCNC(=O)c1ccco1)Nc1nc2ccccc2s1,3,.,2%,.,?,-3.7%,-1%[15.4 µM]
Cc1cc(C)n(-c2nnc(C)n2NS(=O)(=O)c2ccc(F)cc2)n1,5,-2.6,0%,-27%,8,0.6%,-3%
C=CCn1c(SCC(=O)NCc2ccc3c(c2)OCO3)nc2scc(-c3ccc(F)cc3)c2c1=O,-7,-1.0,-1%,?,3,2.0%,0%
COc1ccc(NC(=S)NC23CC4CC(CC(C4)C2)C3)cc1OC,-18,.,-9%,32%[activator],8,-13%,-1%[15.4 µM]
CN(C)S(=O)(=O)c1ccc(NC(=S)NC(=O)c2ccc(Br)o2)cc1,.,-2.0,.,56µM*,8,.,.
CCOC(=O)C[C@H]1c2cc(F)ccc2S(=O)(=O)N1C1CCCC1,-12,.,-2%,.,.,0.5%&1.2%,0%
Cc1cc(N2CCCC2)nc2ccc(NC(=S)NC(C)C)cc12,-3,0.5,-3%,-7%,?,4.2%,?
Cc1noc(COc2ccccc2OCc2onc(C)c2Cl)c1Cl,-7,2.5,?,1%,-6,-2.0%,-11%
CCN(CC)CCOC(=O)CCc1cccc2ccccc12,3,1.9,3%,-21%,-8,0.5%,0%
O=C(NCC(c1cccs1)N1CCOCC1)c1ccc(Cl)s1 (stereo not given),-11,0.9,-1%,9%,-10,-3.1%,19%
CCC(=O)Nc1cccc(-c2csc(-c3ccccc3)n2)c1,-3,-0.4,6%,-8%,-14,1.0%,-41%
O=C(Nc1ccc(N2CCN(C(=O)c3cccs3)CC2)cc1)c1cccnc1Cl,-4,-0.5,-13%,24%,15,-0.5%,-23%
C=CCn1c(C)nnc1SCC(=O)Nc1oc(C)c2c(C)n[nH]c(=O)c12,-24,.,-13%,.,16,-7.2%,-5%[15.4 µM]
COc1cccc(NC(=O)CC(c2ccc(OC(C)C)cc2)c2ccccc2OC)c1 (stereo not given),9,-1.0,7%,28%,-13,0.7%,1%
O=C(c1ccc2c(c1)N(Cc1ccccc1)CCS2)N1CCCCC1,2,-0.7,?,40µM*,18,4.4%,-106%[inhibitor]
CCN(CC)S(=O)(=O)c1ccc(C(=O)NCC(=O)NCc2ccc3c(c2)OCO3)cc1,-5,.,.,.,.,-1.0%,15%
Cc1cccc(N(CC(=O)Nc2c(C)n(C)n(-c3ccccc3)c2=O)S(C)(=O)=O)c1C,-7,-6.2,0%,15%,26,-3.4%,3%
Cc1ccc(CC(=O)N/N=C/c2ccc(OC(=O)c3ccc([N+](=O)[O-])cc3)cc2)cc1,20,-1.1,14%,4%,-7,2.9%,-25%
O=C(c1ccc(-n2cncn2)c([N+](=O)[O-])c1)N1CCN(c2cccc(Cl)c2)CC1,1,.,-26%,4%,1,1.6%,-36%[inhibitor]
COc1ccc(CCN(Cc2ccccn2)C(=S)Nc2ccccc2F)cc1OC,3,0.5,13%,12%,-4,.,-26%[15.4 µM]
CCOC(=O)c1sc(NC(=O)c2cccs2)cc1C,-22,3.0,-15%,7%,-8,-8.3%,-42%[inhibitor]
CCOc1ccc2nc(N/C(N)=N/C(=S)Nc3ccc(OC)cc3)nc(C)c2c1,-4,2.3,-1%,4%,18,3.7%,-12%
Cc1cccc(C(=O)NCC(C)NC(=O)c2cccc(C)c2)c1 (stereo not given),-3,0.9,4%,10%,-8,1.5%,3%[15.4 µM]
CCNC(=O)NC(=O)C(C)OC(=O)C(C)(C)Oc1ccc(Cl)cc1 (stereo not given),-1,5.0,8%,10%,-12,.,-15%
CN(Cc1ccccc1)C1CCCN(C(=O)c2ccc(Cl)s2)C1 (stereo not given),-41,.,3%,5%,-14,-1.5%,1%[15.4 µM]
COc1cc(NC(=O)c2cccs2)c(OC)cc1NC(=O)CCC(=O)Nc1cccc2ncccc12,2,-1.9,?,-11%,19,1.1%,10%
COc1ccc(NC(=S)NCc2cccs2)cc1OC,-2,0.1,6%,24%,-5,-1.0%,-22%
Cc1ccc(NC(=O)COC(=O)Cn2c(C)csc2=O)cc1,-5,0.1,-1%,9%,12,-0.7%,6%
Cc1cc(NC(=O)CSc2nc(C3CCCCC3)nc3ccccc23)no1,-8,-2.4,0%,11%,-12,-4.3%,-2%
O=C(CCc1ccc(Oc2cc([N+](=O)[O-])cc([N+](=O)[O-])c2)cc1)NC1CCCC1,3,-0.6,-28%,7%,3,2.0%,-1%
COc1cc(/C=C\C(=O)Nc2cc(=O)n(C)c(=O)n2C)cc(OC)c1OC,3,-3.0,11%,25%,3,.,11%[15.4 µM]
CC(C)c1ccc(OCc2ccc(C(=O)O)o2)cc1,1,-1.2,-8%,15%,8,.,-23%[15.4 µM]

# Ordered by formula weight (falling): some entries from above.
SMILES,D2 potentiator,Menin MLL FP FL,gsp antag,Sfp PPTase inh,TRPV1 PAM,ClpP mod,gsp agonist
Cc1cccc(N(CC(=O)Nc2c(C)n(C)n(-c3ccccc3)c2=O)S(C)(=O)=O)c1C,-7,-6.2,0%,15%,26,-3.4%,3%
CN(C)S(=O)(=O)c1ccc(NC(=S)NC(=O)c2ccc(Br)o2)cc1,.,-2.0,.,56µM*,8,.,.
O=C(c1ccc(-n2cncn2)c([N+](=O)[O-])c1)N1CCN(c2cccc(Cl)c2)CC1,1,.,-26%,4%,1,1.6%,-36%[inhibitor]
Cc1cc(NC(=O)CSc2nc(C3CCCCC3)nc3ccccc23)no1,-8,-2.4,0%,11%,-12,-4.3%,-2%
COc1cc(/C=C\C(=O)Nc2cc(=O)n(C)c(=O)n2C)cc(OC)c1OC,3,-3.0,11%,25%,3,.,11%[15.4 µM]
C=CCn1c(C)nnc1SCC(=O)Nc1oc(C)c2c(C)n[nH]c(=O)c12,-24,.,-13%,.,16,-7.2%,-5%[15.4 µM]
O=C(NCC(c1cccs1)N1CCOCC1)c1ccc(Cl)s1 (stereo not given),-11,0.9,-1%,9%,-10,-3.1%,19%
CN(Cc1ccccc1)C1CCCN(C(=O)c2ccc(Cl)s2)C1 (stereo not given),-41,.,3%,5%,-14,-1.5%,1%[15.4 µM]
CCOC(=O)C[C@H]1c2cc(F)ccc2S(=O)(=O)N1C1CCCC1,-12,.,-2%,.,.,0.5%&1.2%,0%
O=C1CC(NS(=O)(=O)c2cccs2)CN1c1ccc(F)cc1 (stereo not given),1,.,10%,.,5,.,7%[15.4 µM]
CCC(=O)Nc1cccc(-c2csc(-c3ccccc3)n2)c1,-3,-0.4,6%,-8%,-14,1.0%,-41%
CC(C)CN(CC(C)C)C(=O)Nc1ccccc1F,-9,2.8,8%,17%,-4,.,-7%
CC(C)c1ccc(OCc2ccc(C(=O)O)o2)cc1,1,-1.2,-8%,15%,8,.,-23%[15.4 µM]
O=C(COc1ccccc1)NCc1cccs1,19,-2.3,11%,0%,9,-13%,-26%
Cc1ccc(-c2nc3ncccc3n2O)cc1,7,-8.3,-1%,7%,11,-6.0%,?

# (listing goes on)
SMILES,D2 potentiator,Menin MLL FP FL,gsp antag,Sfp PPTase inh,TRPV1 PAM,ClpP mod,gsp agonist
COc1ccccc1C(CNC(=O)c1cccc(NS(=O)(=O)c2ccc(Br)cc2)c1)N(C)C (stereo not given),-44,.,7%,.,-4,-25%,24%
CCSCc1nnc(SCC(=O)Nc2ccc(OC)cc2)n1C,-1,2.7,-1%,11%,1,.,19%[15.4 µM]
Cc1cc(C)cc(OCC(=O)NCCN2CCOCC2)c1,-20,4.6,5%,14%,-1,-5.1%,-66%[inhibitor]
CC(=O)Oc1ccc(C(=O)Nc2cccc(-c3nnc(-c4ccco4)o3)c2)cc1,8,2.7,?,-2%,5,.,-16%[15.4 µM]
O=C(Nc1ccccc1)c1cn(CCBr)cn1,0,.,5%,.,.,-2.8%,1%
COc1ccccc1C(=O)NNC(=O)C(=O)NCc1ccccc1,-6,2.8,3%,11%,5,.,18%[15.4 µM]
CCCCOC(=O)n1ccc(C(=O)Nc2ccccc2OC)n1,-13,0.7,5%,8%,-5,-1.8%,-73%[inhibitor]
Cc1cccc(-n2c(O)c(C=Nc3c(C)n(C)n(-c4ccccc4)c3=O)c3ccccc3c2=O)n1,0&-28,6.4,-16%&9%,11%,-11,-0.8%,9%&-4%
COc1cc2c(cc1OC)C(c1ccccc1)NCC2 (stereo not given),-7,-2.8,6%,18%,?,.,11%
CC(C)OC(=O)c1nn2c(C(F)(F)F)cc(-c3ccco3)nc2c1Cl,-6,14,5%,6%,-10,-0.5%,?
